Biofilm kill mix = clotrimazole potentiators killing C. albicans biofilm, primary screen, 4-compound mixtures. 0.02% of 120,000 active. C. albicans biofilm persisters + clotrimazole, fluorescence viability; primary screen in compound mixtures of four per well. inhibition, % at 7.6 µM;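 active = inhibition above 30.3% in the primary screen of four-compound pools, then above 30% when the compound was retested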;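 also: compounds exposed to preformed 24 h biofilms for 48 h; the number belongs to the whole pool; some results filed as inactive read as strong as hits; inactives centre near 12; 0% = biofilm with clotrimazole alone and 100% = kill control; retested singly at about 60 µM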
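System: C. albicans CAF4-2 wild-type biofilms; Medium: RPMI/MOPS medium, pH 7.0; Reagent: Clotrimazole, 50 µg/mL; Times: biofilm formation 24 h, compound exposure 48 h, 37 °C; Detection: 2-h Alamar Blue fluorescence, 535/590 nm excitation/emission; Evaluation: percent inhibition of biofilm viability.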
Numbers without * were called inactive.

SMILES	Biofilm kill mix
O=C(OCCN1C(=O)c2cccc3c(N4CCOCC4)ccc(c23)C1=O)c1ccccc1Cl	14
Cc1ccc(-c2noc(CNc3ccccc3)n2)cc1	15
CC(C)(C)NC(=O)C(c1ccc(O)cc1)N(C(=O)CCC(=O)Nc1nccs1)c1cccc(F)c1 (stereo not given)	7
CNCc1nc2ccccc2[nH]1	18
O=C1c2ccccc2NC(c2cccc(O)c2)N1NS(=O)(=O)c1ccccc1 (stereo not given)	3
CCCCOc1ccc(/C=C/C(=O)Nc2ccc([N+](=O)[O-])cc2C)cc1	15
CCOC(=O)N1CCN(CC(=O)Nc2sccc2C#N)CC1	5
Cc1oc(-c2ccccc2)cc1C(=O)NC(Cc1c[nH]c2ccccc12)C(=O)O (stereo not given)	13
COc1ccccc1N1C(=O)C(Cl)=C(Nc2ccccc2O)C1=O	9
COc1cc(S(=O)(=O)N2CCN(C)CC2)ccc1Cl	11
O=C(NCc1ccccc1)c1cccc(S(=O)(=O)NCc2ccccc2)c1	6
Cc1cccc(-c2ncc(CN3CCN(CC(C)C)C(CCO)C3)cn2)c1 (stereo not given)	13
CC(=O)N[C@@H](Cc1c[nH]c2ccccc12)C(=O)OCC(=O)NCc1ccc2c(c1)OCO2	8
COc1ccc(/C=C/C(=O)N2CCN(C)CC2)cc1S(=O)(=O)N1CCCCC1	9
O=C(CCN1C(=O)/C(=C/c2ccccc2)SC1=S)NNC(=O)c1cccnc1	18
C=CCn1c(O)c(N=NC(=S)Nc2ccccc2F)c2ccccc21	20
CCN(CC)C(=O)CSc1nc2cc3c(cc2c(=O)n1CCCCCC(=O)NCc1ccc(OC)cc1)OCO3	16
COc1ccccc1NC(=O)c1cc(C)oc1C	16
O=C(Nc1cc(C(F)(F)F)ccc1Cl)C(Sc1cccc[n+]1[O-])c1ccccc1 (stereo not given)	8
CCOC(=O)C1=C(C)Nc2[nH]c(=O)[nH]c(=O)c2C1c1cccs1 (stereo not given)	2
S=C(NCc1ccco1)N1CCOCC1	1
C#CCNC(=O)C1=C[C@@H](C)C[C@@H](OCc2ccc(CO)cc2)O1	20
C=CC(=O)NN(C)c1ncc(C(F)(F)F)cc1Cl	10
CCN(CC)C(=O)c1cn(-c2ccccc2)nc1-c1ccc2c(c1)OCCO2	10
O=C(CSc1nncs1)NCCCc1ccccc1	8

Other entries follow.
SMILES	Biofilm kill mix
CCCCCCCc1c(O)nc(SCCN2CCOCC2)[nH]c1=O	-4
Cc1cccc(NC(=O)CSc2nc(N)c(NC(=O)c3cccs3)c(=O)[nH]2)c1C	6
CCn1ncc(CN2CCCC(CNC(=O)c3ccc(F)cc3)C2)c1C (stereo not given)	12
O=c1cc(O)c2sc3nc(-c4cccnc4)cc(C(F)(F)F)c3c2[nH]1	11
COc1ccc(C(=O)NC2(C(F)(F)F)NC(=O)N(CCCc3ccccc3)C2=O)c(OC)c1OC (stereo not given)	22
COc1cc(/C=C/C(=O)OCC(=O)NC(=O)NC(C)C)cc(S(=O)(=O)N2CCc3ccccc32)c1OC	6
NC(CC(=O)O)c1ccc(F)cc1 (stereo not given)	-4
COc1ccc(Cn2cc(F)c(=O)n(C)c2=O)cc1[N+](=O)[O-]	9
CC(C)CC1CC(C)(c2csc(NNC(=O)c3ccccc3)n2)OC1=O (stereo not given)	16
CCOc1ccc(C(=O)NC(=S)Nc2cccnc2)cc1[N+](=O)[O-]	6
O=C(N/N=C/c1ccncc1)c1nn(Cc2ccccc2)c(=O)c2ccccc12	11
O=C(CSc1nnc2ccccn12)NNC(=O)c1ccc(F)cc1	10
CCOc1ccc(-c2cc(C(=O)NCC3CCCO3)c3ccccc3n2)cc1 (stereo not given)	0
Cc1ccc(C)c(S(=O)(=O)N2CCN(Cc3ccc(O)c4ncccc34)CC2)c1	7
CN1CCN(CC(=O)N2c3ccccc3C(=O)Nc3cccnc32)CC1	10
CCCc1ccc(-c2cc(NC(=O)CSc3nnc(N)s3)n(-c3ccccc3)n2)cc1	4
NS(=O)(=O)c1ccc(NC(=S)Nc2ccc(S(=O)(=O)N3CCCC3)cc2)cc1	22
O=C(NCCCN1CCOCC1)c1ccc(CSc2ccc(Cl)cc2)cc1	6
CCOC(=O)N1CCN(C(=O)c2ccc3c(=O)n(-c4cc(OC)ccc4OC)c(=S)[nH]c3c2)CC1	20
CN1CCC(C2(O)c3ccccc3CCc3ccccc32)CC1	7
COc1cccc(CC2(CO)CCCN(Cc3ccc(CN4CCCCC4)s3)C2)c1 (stereo not given)	14
O=C1OCCC1Sc1nnc(-c2ccccc2Cl)n1Cc1ccccc1 (stereo not given)	8
S=c1[nH]cc(-c2ccc(Cl)cc2)n1Cc1ccccc1	25
CCS(=O)(=O)N1Cc2ccccc2CC1C(=O)Nc1nc2ccc(C)cc2s1 (stereo not given)	12
O=C1CC(N2CCN(c3ccccn3)CC2)C(=O)N1CC(c1ccccc1)c1ccccc1 (stereo not given)	10

(cont.)
SMILES	Biofilm kill mix
CCN(C(=S)NCCOC)c1cccc2ccccc12	9
COc1ccc(NCc2nnc(SCC(=O)NCc3ccco3)n2-c2ccccc2OC)cc1	18
Cc1cc(NC(=O)CSc2nccn2-c2ccc([N+](=O)[O-])cc2)no1	13
C/C(CC(=O)Nc1ccc(N(C)C)cc1)=N\NC(=O)c1cnccn1	16
CC(C)C(C)NC(=O)COc1ccc(S(=O)(=O)N2CCOCC2)cc1Cl (stereo not given)	19
O=C(NNc1cccc(Cl)n1)Nc1ccccc1F	14
Cc1ccc(CNC(C)c2ccccc2)cc1 (stereo not given)	9
COc1cccc(C(=O)NNC(=O)CCc2ccccc2)c1	10
CC(=O)Nc1ccc2nsnc2c1	25
C#CCCCCCCC#CCN(C)C	18
COC(=O)c1cn(Cc2ccc(C(F)(F)F)cc2)cc(F)c1=O	11
O=C(Nc1ccc(N2CCCCC2)cc1)C(Cl)c1ccccc1 (stereo not given)	13
Cc1onc(-c2ccccc2)c1C(=O)N/N=C/c1cc2c(cc1Br)OCO2	2
CC(C)(C)c1ccc(OCCOCCn2cnc3ccccc3c2=O)cc1	-11
CCNc1nc(NCC)n2c(SCC(=O)N3CC4(C)CC3CC(C)(C)C4)nnc2n1 (stereo not given)	24
Cc1cccc(Nc2nnc(SCC(=O)NCc3cccs3)s2)c1	17
CC(C(=O)O)c1ccc(-c2ccccc2)c(F)c1 (stereo not given)	18
Cc1ccc2c(-c3ccc([N+](=O)[O-])cc3)cc(=O)[nH]c2c1	13
CC(NC(=O)COC(=O)CC(c1ccccc1)c1ccccc1)c1ccccc1 (stereo not given)	11
Cc1nc(NC(=O)/C=C/c2ccccc2)sc1C(=O)Nc1cccc(Cl)c1	24
O=C(NCC1CCCO1)C1CCN(C2CCN(CCCC3CCCC3)CC2)CC1 (stereo not given)	9
COc1ccc(CC(=O)NCC2(N3CCCCC3)CCCCC2)cc1	3
COc1cccc2cc(C(C)OC(=O)Nc3ccc(C)cc3)oc12 (stereo not given)	3
C/C(CC(=O)Nc1ccc(N(C)C)cc1)=N\NC(=O)C(=O)NCc1ccccc1	5
COc1ccccc1-c1nc(C#N)c(N2CC(C)CC(C)C2)o1 (stereo not given)	3

Next section:
SMILES	Biofilm kill mix
CN(NC(=O)c1ccc(Cl)cc1Cl)C1=NS(=O)(=O)c2ccccc21	13
CC(C)C[C@@H]1NC(=O)[C@H](C(C)C)NC(=O)c2cc([N+](=O)[O-])cc(I)c2OCC[C@@H](C(N)=O)NC1=O	20
O=c1c2ccccc2[nH]c(=S)n1CCC1=CCCCC1	14
CNC(=O)Nc1ccccc1C(=O)Nc1ccccc1	9
O=C(O)c1ccccc1C(=O)Nc1ccc(Oc2cccc3ccccc23)cc1	3
CCCCc1ccc(NC(=S)N2CCCC(CO)C2)cc1 (stereo not given)	17
O=C(Nc1ccc(F)cc1)Nc1ccccc1N1CCCCC1	5
O=C(C1CCC(CNS(=O)(=O)c2cccc3nsnc23)CC1)N1CCN(c2ccccn2)CC1 (stereo not given)	11
CSc1nc2ccc(NS(=O)(=O)c3c(Cl)cccc3Cl)cc2s1	14
CCOc1ccc(NC(=O)CN2C(=O)CSC2=O)cc1	27
O=C(O)CCSc1nnc(COc2cccc3ccccc23)n1-c1cccc(Cl)c1	10
COc1ccc(CCN(C)C2CC(=O)N(c3ccccc3)C2=O)cc1OC (stereo not given)	-5
COC(=O)C1=C(O)/C(=C/c2cccc(OC)c2O)N=C1C	17
CSc1nnc(C)c(=O)n1COC(=O)/C=C/c1ccccc1	8
COC(=O)CSc1nc(N)c2c3c(sc2n1)C(c1ccccc1)SC(c1ccccc1)C3 (stereo not given)	9
Cc1ccc(/C=C(\C#N)C(=O)NCCN2CCOCC2)cc1	17
Oc1ccc(N2CCN(c3ncnc4sc(-c5ccccc5)cc34)CC2)cc1	7
O=C(Cc1c(Cl)cccc1Cl)NC1=NCCS1	13
Cc1ccc(C2(C)NC(=O)N(CC(=O)NCc3cccs3)C2=O)cc1 (stereo not given)	10
CCN(CC)S(=O)(=O)c1ccc(/C=C/C(=O)O)cc1	12
CC1CCc2c(sc3nc(CN4CCOCC4)nc(N4CCc5ccccc5C4)c23)C1 (stereo not given)	11
COc1cc(OC)cc(C(=O)NC(C(=O)O)C23CC4CC(CC(C4)C2)C3)c1 (stereo not given)	12
CC1(C)CC(=O)C/C(=N/Nc2nc3ccccc3s2)C1	14
O=C(CN1C(=O)NC(Cc2c[nH]c3ccccc23)C1=O)Nc1cccc(S(=O)(=O)N2CCCC2)c1 (stereo not given)	6
Cc1ccc(OCC(=O)N2N=C(c3ccc(Cl)cc3)CC2c2ccco2)c([N+](=O)[O-])n1 (stereo not given)	14

A portion of the results above, as a working copy:
SMILES	Biofilm kill mix
CC1(C)CC(=O)C/C(=N/Nc2nc3ccccc3s2)C1	14
O=C(CN1C(=O)NC(Cc2c[nH]c3ccccc23)C1=O)Nc1cccc(S(=O)(=O)N2CCCC2)c1 (stereo not given)	6
Cc1ccc(OCC(=O)N2N=C(c3ccc(Cl)cc3)CC2c2ccco2)c([N+](=O)[O-])n1 (stereo not given)	14

Other results
SMILES	Biofilm kill mix
O=C(COc1cc(O)c2c(=O)c3ccccc3oc2c1)OCc1ccccc1	14
Cc1nn(CC(=O)c2ccc(Cl)s2)c(C)c1[N+](=O)[O-]	9
CCOC(=O)COc1ccc(S(=O)(=O)N2CCN(c3ccc(OC)cc3)CC2)cc1	5
O=C(CSc1nnc(-c2ccc3c(c2)OCO3)o1)Nc1ncc(C(F)(F)F)cc1Cl	-3
COc1ccc(OCC(=O)NCCC2=CCCCC2)c([N+](=O)[O-])c1	14
COc1ccc(C(=O)N/N=C/c2c(C)[nH]c(=O)[nH]c2=O)cc1	3
CCCc1ccc(C(=O)[C@@H]2[C@@H](C(C)=O)N3c4ccc(F)cc4C=C[C@@H]3[C@@]23C(=O)Nc2ccccc23)cc1	14
C/C(=N/NC(=O)c1ccoc1C)c1cccc(NC(=O)C(F)(F)F)c1	11
COc1ccc(OC)c(Nc2ccc(C(=O)O)cc2[N+](=O)[O-])c1	-2
COc1cc(/C=C(/C#N)C(=O)Nc2ccc(Cl)cc2)ccc1Oc1nc(Cl)ncc1F	26
COC(=O)N1[C@H](Cc2ccccc2)C=C[C@]1(C)C(=O)NCc1ccccn1	11
Cc1ccc(C)c(C(=O)CSc2nnc(C)s2)c1	12
CCOc1cc(C=O)cc(Cl)c1OCC(N)=O	18
O=C(CCN1C(=O)c2cccc([N+](=O)[O-])c2C1=O)Nc1nccs1	-1
O=C(O)c1cccc(N/N=C/C2=C(Cl)c3cc(Cl)ccc3SC2)c1	3
CCOC(=O)N1CCN(CCC(=O)Nc2ccc(Br)c(C)c2)CC1	4
COc1ccc(C=C2C(=O)OC(C)(C)OC2=O)cc1OC	13
O=C(c1ccc(F)cc1)n1cc(C(=S)N2CCOCC2)c2ccccc21	16
COc1ccc(Cl)cc1Nc1nc(C)cc(C)c1C(N)=O	6
Cc1ccc(C(=O)Nc2c(C)cc(-c3ccccc3)oc2=O)cc1	8
Cc1cc(C(=O)NCCCN(C)C)c2ccccc2n1	7
Cc1ccc2[nH]c3c(c2c1)CN(C)CC3	7
Cn1c(Cc2ccccc2)n[nH]c1=S	14
CCOc1ccccc1CN1CCN(Cc2cccc3nonc23)CC1CCO (stereo not given)	16
CCOC(=O)C1=C(C)NC(=S)NC1c1ccc(-c2ccc(Cl)cc2)o1 (stereo not given)	22
CCOC(=O)c1c(CN(C)C)n(-c2ccccc2)c2cc(Br)c(OC)cc12	28
Cc1sc2nc(CN(C(=O)NC3CCCCC3)C3CCCC3)[nH]c(=O)c2c1C	6
CC(C)N(Cc1cc2ccccc2[nH]c1=O)C(=O)c1cccc([N+](=O)[O-])c1	24
COc1cc2c(cc1NC(=O)C(C)Sc1cccc[n+]1[O-])oc1ccccc12 (stereo not given)	15
C=C1c2ccccc2S(=O)(=O)N(Cc2ccccc2)C1COCc1ccccc1 (stereo not given)	8

Ordered by heavy-atom count (ascending): some entries from above
SMILES	Biofilm kill mix
Cc1nc(NC(=O)/C=C/c2ccccc2)sc1C(=O)Nc1cccc(Cl)c1	24
CCN(CC)C(=O)c1cn(-c2ccccc2)nc1-c1ccc2c(c1)OCCO2	10
CCN(CC)C(=O)CSc1nc2cc3c(cc2c(=O)n1CCCCCC(=O)NCc1ccc(OC)cc1)OCO3	16

4 entries from above, as labelled records:
O=C(O)c1ccccc1C(=O)Nc1ccc(Oc2cccc3ccccc23)cc1
- Biofilm kill mix: 3
CCCCc1ccc(NC(=S)N2CCCC(CO)C2)cc1 (stereo not given)
- Biofilm kill mix: 17
O=C(Nc1ccc(F)cc1)Nc1ccccc1N1CCCCC1
- Biofilm kill mix: 5
O=C(C1CCC(CNS(=O)(=O)c2cccc3nsnc23)CC1)N1CCN(c2ccccn2)CC1 (stereo not given)
- Biofilm kill mix: 11

Screening results: PubChem BioAssay, PCMD

These rows are one share of the data; count on the stated rates, not on these rows.
